AF4-AF9 inh: inhibitors of human MLL-AF4/AF9 interaction. AlphaScreen, biotin-AF4 peptide binding to FLAG-AF9. inhibition, % at 10 µM. actives 0.47% (n = 350,000). AID 651704;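 active = every replicate reaching a set inhibition limit, whatever the replicate mean, cut at about 25% in these data; inconclusive = mean inhibition reaches that limit but some replicates miss it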;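 also: 0% = plate neutral control median and 100% = total signal loss; the record names both 10 and 1 µM as test concentration; the first replicate is given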
Target sequence (P42568 whole entry, looked up): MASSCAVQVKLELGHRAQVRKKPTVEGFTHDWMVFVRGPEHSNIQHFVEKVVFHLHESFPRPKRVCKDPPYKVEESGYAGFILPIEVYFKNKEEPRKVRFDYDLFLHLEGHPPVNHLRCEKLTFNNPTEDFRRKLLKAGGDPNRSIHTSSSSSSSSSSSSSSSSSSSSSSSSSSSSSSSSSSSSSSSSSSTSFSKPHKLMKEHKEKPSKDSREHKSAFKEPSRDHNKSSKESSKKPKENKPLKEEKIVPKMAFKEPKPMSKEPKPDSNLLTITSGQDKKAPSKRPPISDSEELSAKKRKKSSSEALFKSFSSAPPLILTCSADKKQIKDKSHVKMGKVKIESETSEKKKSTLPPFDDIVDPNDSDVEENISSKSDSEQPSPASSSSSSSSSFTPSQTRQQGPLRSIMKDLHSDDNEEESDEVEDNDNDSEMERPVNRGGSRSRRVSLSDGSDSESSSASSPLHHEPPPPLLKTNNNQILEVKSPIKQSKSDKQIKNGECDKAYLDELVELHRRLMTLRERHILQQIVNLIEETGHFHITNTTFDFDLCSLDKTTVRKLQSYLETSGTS
rRNA inh HTS: selective bacterial rRNA inhibition in E. coli; GFP signal change (wild-type ribosome), % (test concentration not listed); E. coli WT GFP vs humanized-ribosome RFP mutants, fluorescence, 24 h; hits give low values; DMSO median 0, no signal -100; actives 1.6% (n = 350,000); AID 720706;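 active = significant combined selectivity score with lowered wild-type GFP, culture density cut under 30%, mutant RFP and density less affected; inactive = any of these conditions unmet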; also: one replicate is shown; some compounds called inactive have numbers as strong as hits
FGF22 binding: shifts melting point of recombinant human FGF22 | recombinant FGF22 thermal shift, SYPRO orange fluorescence; percent of sucrose octasulfate shift, DMSO zero | calls only at 9.99 µM | actives 1.5% (n = 340,000);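 active = melting point raised past a set limit in the mean and every replicate; inconclusive = no clear call; three in four hits are not shown here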
Target sequence (Q9HCT0 whole entry, looked up): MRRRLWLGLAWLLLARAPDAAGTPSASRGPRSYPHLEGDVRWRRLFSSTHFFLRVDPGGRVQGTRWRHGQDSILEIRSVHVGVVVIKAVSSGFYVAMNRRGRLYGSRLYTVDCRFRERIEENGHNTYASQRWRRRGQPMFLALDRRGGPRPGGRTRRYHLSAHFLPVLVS
rRNA inh HTS OD600: also measured in rRNA inh HTS; calls as there; OD600 change, %; measured here: OD600 growth;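 optical density of the mix in the first replicate; 0 = DMSO median and -100 = no signal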
rRNA inh HTS RFP: second read-out of rRNA inh HTS, no call of its own (marks repeat the call); RFP signal change, %; measured here: RFP humanized mutant strains;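 first replicate; 0 = DMSO median and -100 = no signal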
Active calls of the source: *; i = inactive; ? = inconclusive; & = joins results of further samples. This is a subset; count on the stated rates, not on these rows.

SMILES	AF4-AF9 inh	rRNA inh HTS	rRNA inh HTS OD600	rRNA inh HTS RFP	FGF22 binding
C[C@@H]1CN([C@@H](C)CO)C(=O)c2cc(Br)cnc2O[C@H]1CN(C)C(=O)C1CCCCC1	0.1&-2.3&-1.2	1&-1	12&11	-4.1&-7.2	i
O=C(O)c1cc(N2CCCCC2)ccn1	-1.2	10	21	-0.1	i
N#C[C@@H]1[C@H](c2ccc(C#Cc3ccc(F)cc3)cc2)[C@@H](CO)N1C(=O)C1CCC1	-3.0	-58	-71	-11	i
C[C@@H]1CN([C@H](C)CO)C(=O)c2cc(C#C[C@@H](C)O)cnc2O[C@@H]1CN(C)C(=O)c1ccc(F)cc1	-4.9	3	7	0.3	i
Cc1cc(O)ccc1-c1cccc2nccn12	-2.5	15	5	2.4	i
CN1CCN(C(=O)c2cc3c(c(-c4cccc(-c5cc6ccccc6o5)c4)n2)[C@H](CCO)N(S(=O)C(C)(C)C)C3)CC1 (some centres undefined)	7.7	-1	-3	14	i
C[C@H](CO)N1C[C@H](C)[C@@H](CN(C)Cc2ccc(C(=O)O)cc2)Oc2ccc(NC(=O)Nc3ccc4c(c3)OCO4)cc2C1=O	0.4	-1	0	-2.2	i
COc1ccc(NC(=O)Nc2ccc3c(c2)C(=O)N([C@@H](C)CO)C[C@@H](C)[C@H](CN(C)C(=O)Nc2ccc(OC)cc2)OCCCC[C@@H](C)O3)cc1	-5.1	1	2	0.4	i
O=C(C[C@H]1C[C@H]2c3cc(NC(=O)C4CCC4)ccc3O[C@H]2[C@H](CO)O1)NCc1ccc(Cl)cc1	-1.3	2	10	-1.4	i
OCCCN1CNC(=S)NC1	-0.7	8	20	-4.3	i
Cc1ccccc1-c1cnc2c(c1)C(=O)N([C@H](C)CO)C[C@@H](C)[C@@H](CN(C)C(=O)CC1CC1)O2	-2.4	0	13	-2.6	i
Cc1ccc(S(=O)(=O)N(C)C[C@H]2Oc3ccc(NC(=O)CCC(F)(F)F)cc3C(=O)N([C@@H](C)CO)C[C@@H]2C)cc1	-0.9	0	4	-0.9	i
C[C@H](CO)N1C[C@H](C)[C@@H](CN(C)C)OCCCC[C@H](C)Oc2ccc(NS(=O)(=O)c3cn(C)cn3)cc2C1=O	-8.3	2	1	1.5	i
C/C=C/c1ccc([C@@H]2[C@@H](C#N)N(c3nc(CC)cs3)[C@@H]2CO)cc1	-1.0	1	7	-5.4	i
CCCN1[C@@H]2Cn3c(ccc(C4=CCCCC4)c3=O)[C@H]1[C@@H](C(=O)NCCc1ccncc1)[C@@H]2CO	0.4	3	7	0.8	i
COCC#Cc1ccc2c(c1)O[C@@H](CN(C)C(C)=O)[C@H](C)CN([C@H](C)CO)S2(=O)=O	-1.6	3	5	2.0	i
COc1ccc(NC(=O)Nc2ccc3c(c2)C(=O)N([C@@H](C)CO)C[C@H](C)[C@H](CN(C)Cc2ccccc2)OCCCC[C@H](C)O3)cc1	10	3	-14	2.6	i
COc1ccc(S(=O)(=O)Nc2ccc3c(c2)C(=O)N([C@@H](C)CO)C[C@H](C)[C@H](CN(C)C)O3)cc1	-4.3	3	6	2.6	i
CC(=O)Nc1ccc(S(=O)(=O)NC2(c3ccccc3)C(=O)N(C)C(=O)N(C)C2=O)cc1	?	2	4	2.8	i
COC(=O)C[C@@H]1CC[C@@H]2[C@H](COC[C@@H](O)CN2S(=O)(=O)c2ccccc2C)O1	1.1	1	-4	5.6	i
COc1ccc(NC(=O)c2ccc(-c3c(C)noc3C)c3ccoc23)cc1	-0.1	-7	-23	-4.8	i
COc1ccc(S(=O)(=O)Nc2ccc3c(c2)C(=O)N([C@H](C)CO)C[C@H](C)[C@H](CN(C)S(=O)(=O)c2cccs2)O3)cc1	2.1	-1	-8	2.9	i
COc1ccc(S(=O)(=O)Nc2ccc3c(c2)CC(=O)N([C@H](C)CO)C[C@H](C)[C@@H](CN(C)Cc2ccc(Oc4ccccc4)cc2)O3)cc1	4.3	4	10	3.5	i
C[C@H]1CN([C@@H](C)CO)S(=O)(=O)c2ccc(-c3cccnc3)cc2O[C@H]1CN(C)C(=O)CN(C)C	-0.1	4	8	-2.2	i
O=C(C(=O)N1CCC(CNS(=O)(=O)c2ccccc2OC(F)(F)F)CC1)c1cccs1	3.1	-5	-14	-0.6	i
C[C@@H]1CN([C@H](C)CO)C(=O)c2cc(NC(=O)Nc3ccc4c(c3)OCO4)ccc2O[C@@H](C)CCCCO[C@@H]1CN(C)C(=O)NC1CCCCC1	6.0	-1	4	2.8	i
C[C@H](NC(=O)C[C@H]1CC[C@H]2[C@@H](COc3ccc(NC(=O)C4CCOCC4)cc3C(=O)N2C)O1)c1ccccc1	-1.2	0	11	-2.7	i
Cc1c(C(=O)NCc2ccco2)sc(=O)n1Cc1ccc(S(C)(=O)=O)cc1	-2.5	10	14	0.4	i
O=C(c1ccncc1)N1CC2(C1)[C@H](c1ccccc1)[C@H](CO)N2C(=O)CC1CC1	-0.3	3	14	-2.5	i
CO[C@H](CN(C)C(=O)c1ccc2c(c1)OCO2)[C@@H](C)CN([C@H](C)CO)S(=O)(=O)c1ccc(C)cc1	-4.7	2	4	0.1	i
COCC(=O)Nc1ccc2c(c1)C(=O)N(C)C[C@H](OC)[C@@H](C)CN(Cc1ccccc1F)[C@H](C)CO2	?	-6	-11	2.7	i
O=S(=O)(c1ccccc1F)N1CC[C@@H]2[C@@H](CO)Nc3ccc(C4=CCCCC4)cc3[C@@H]21	-3.9	-8	-10	0.6	i
C[C@@H]1CN([C@@H](C)CO)C(=O)c2cccc(NS(=O)(=O)c3cn(C)cn3)c2O[C@H]1CN(C)C(=O)NC1CCCCC1	-1.7	3	-2	0.9	i
C[C@H](CO)N1C[C@H](C)[C@@H](CN(C)C(=O)c2ccc3c(c2)OCO3)Oc2ncc(C3=CCCCC3)cc2C1=O	3.3	-5	-8	2.2	i
C[C@@H]1CN([C@@H](C)CO)C(=O)c2cc(NC(=O)c3ccncc3)ccc2O[C@@H]1CN(C)C(=O)Nc1ccc2c(c1)OCO2	-3.1	1	-2	-0.3	i
C[C@@H]1CN([C@H](C)CO)C(=O)Cc2cc(NC(=O)Cc3ccccc3)ccc2O[C@H]1CN(C)C(=O)Nc1ccccc1	-2.0	1	3	-1.7	i
COc1ccc(CNC(=O)C[C@@H]2C[C@@H]3c4cc(NS(C)(=O)=O)ccc4O[C@@H]3[C@@H](CO)O2)cc1	0.8	0	1	0.0	i
C[C@@H]1CN([C@@H](C)CO)S(=O)(=O)c2ccc(-c3ccc(C(=O)N(C)C)cc3)cc2O[C@@H]1CN(C)C(=O)C1CCCCC1	30*	-5	-6	-0.6	i
Cc1ccc(S(=O)(=O)Nc2ccc3c(c2)CC(=O)N([C@@H](C)CO)C[C@@H](C)[C@H](CN(C)CC2CC2)O3)cc1	2.0	6	6	-3.9	i
COc1ccc(CN2[C@H](CO)[C@H]3c4ccccc4N(C(=O)NC(C)C)C[C@H]32)cc1	-6.1	4	4	2.0	i
O=C(c1ccccc1F)N1CC[C@@H]2[C@H](CO)Nc3ccc(C#Cc4ccccc4F)cc3[C@@H]21	-5.0	-3	12	4.6	i
Cc1ccc(S(=O)(=O)N(C)C[C@H]2Oc3ccc(NC(=O)C4CCCCC4)cc3CC(=O)N([C@@H](C)CO)C[C@@H]2C)cc1	-1.6	-4	-6	2.4	i
NC(=O)C1CCN(C(=O)c2ccc3ncsc3c2)CC1	0.0	5	16	0.8	i
C[C@H](CO)N1C[C@H](C)[C@@H](CN(C)C(=O)Cc2ccncc2)Oc2ncc(C3=CCCC3)cc2C1=O	-0.6	-2	6	-2.7	i
C[C@H](CO)N1C[C@H](C)[C@H](CN(C)C(=O)Nc2cccc3ccccc23)Oc2ccc(NC(=O)Nc3ccccc3)cc2CC1=O	-1.6	3	0	1.3	i
COCC#Cc1ccc2c(c1)O[C@H](CN(C)C(=O)NC(C)C)[C@@H](C)CN([C@@H](C)CO)S2(=O)=O	0.6	0	-3	0.5	i
CC1=C(C(=O)N(C(C)C)C(C)C)CC(CC(=O)NCCc2ccccn2)C(=O)N1Cc1ccc(C(C)(C)C)cc1 (centres undefined)	0.0	-4	-8	0.9	i
O=C(C1CCC1)N1CC[C@H]2[C@H](CO)Nc3ccc(C#Cc4cccc(F)c4)cc3[C@H]21	2.7	-8	-9	19	i
CC(C)NC(=O)N(C)C[C@H]1Oc2c(NC(=O)c3ccncc3)cccc2C(=O)N([C@@H](C)CO)C[C@@H]1C	-3.1	0	-2	2.9	i
CCCNC(=O)N1[C@H](CO)[C@H](c2ccccc2)[C@H]1CNC(=O)c1cccc(F)c1	-14	-1	-3	1.9	i
CO[C@@H]1CN(C)C(=O)c2ccc(NC(=O)C3CC3)cc2OC[C@H](C)N(CCc2ccccc2)C[C@@H]1C	-0.9	-1	-2	-1.2	i
CCCN1C[C@H](C)[C@H](OC)CN(C)C(=O)c2ccc(NS(=O)(=O)c3cn(C)cn3)cc2OC[C@H]1C	-7.3	0	1	-0.8	i
CN1CCN(C2CN(Cc3cn(Cc4cccc(Cl)c4)nn3)S(=O)(=O)C2)CC1 (centres undefined)	-2.1	12	6	2.6	i
CNc1ncnc(Sc2nc(N)nc3nc[nH]c23)c1[N+](=O)[O-]	-0.2	-10	-5	-3.8	i
CC(=O)c1ccc(OCC(=O)NC(=O)NC2CCCC2)cc1	-0.7	3	13	1.5	i
CN(C[C@H]1N[C@H](CO)[C@H]1c1ccc(C2=CCCC2)cc1)S(C)(=O)=O	0.1	0	7	-1.1	i
